Screening results: PubChem BioAssay, Broad Institute
MLL AF4-AF9 inh: MLL-AF4/AF9 protein interaction inhibition. P42568. AlphaScreen, biotin-AF4 peptide binding to FLAG-AF9. inhibition, % at 10 µM. hit rate 0.47% among 350,000. AID 651704;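 active = every replicate reaching a set inhibition limit, whatever the replicate mean, cut at about 25% in these data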;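 also: 0% = plate neutral control median and 100% = total signal loss; the record names both 10 and 1 µM as test concentration; the first replicate is given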
Target sequence (P42568 whole entry, looked up): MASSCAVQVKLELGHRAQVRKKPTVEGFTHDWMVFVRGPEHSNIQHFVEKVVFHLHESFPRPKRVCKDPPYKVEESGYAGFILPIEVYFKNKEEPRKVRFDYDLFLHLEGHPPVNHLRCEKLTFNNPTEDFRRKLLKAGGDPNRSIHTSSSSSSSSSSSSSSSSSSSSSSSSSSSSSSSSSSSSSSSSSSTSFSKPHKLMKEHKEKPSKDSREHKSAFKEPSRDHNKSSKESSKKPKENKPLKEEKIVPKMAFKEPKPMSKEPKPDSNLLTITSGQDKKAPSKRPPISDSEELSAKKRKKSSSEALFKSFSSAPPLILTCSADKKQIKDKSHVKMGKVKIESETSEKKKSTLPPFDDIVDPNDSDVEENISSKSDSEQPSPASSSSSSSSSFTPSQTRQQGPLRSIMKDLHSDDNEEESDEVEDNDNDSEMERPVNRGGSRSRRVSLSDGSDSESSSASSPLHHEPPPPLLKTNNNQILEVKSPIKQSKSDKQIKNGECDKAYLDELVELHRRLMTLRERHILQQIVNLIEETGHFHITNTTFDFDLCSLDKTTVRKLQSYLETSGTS
* marks the source's active call; other numbers are inactive results.

#	Structure	MLL AF4-AF9 inh
1	C[C@H](CO)N1C[C@H](C)[C@@H](CN(C)C(=O)C2CCOCC2)Oc2ncc(-c3ccccc3F)cc2C1=O	-8.1
2	CCCNC(=O)N1CC2(C1)CN(Cc1cccc(F)c1)[C@H](CO)c1[nH]c3cc(OC)ccc3c12	10.9
3	CC(C)CNC(=O)C1(C)CCCCCN1Cc1ccccc1-c1ccccc1 (centres undefined)	-4.3
4	CS(=O)(=O)N1CCCCN2[C@@H](CO)[C@H](c3ccc(-c4cccc(C#N)c4)cc3)[C@@H]2C1	-2.6
5	C[C@H](CO)N1C[C@H](C)[C@@H](CN(C)S(=O)(=O)c2ccc(F)cc2)OCCCC[C@H](C)Oc2ccc(NC(=O)C3CCCCC3)cc2C1=O	-1.0
6	C[C@@H]1CN([C@@H](C)CO)S(=O)(=O)c2ccc(C3=CCCCC3)cc2O[C@@H]1CN(C)C(=O)C1CC1	1.8
7	COc1ccc(C#Cc2ccc([C@@H]3[C@@H](CO)N4C(=O)CN(C(=O)Nc5ccccc5F)C[C@H]34)cc2)cc1	-2.8
8	COc1ccc(S(=O)(=O)Nc2ccc3c(c2)C(=O)N([C@@H](C)CO)C[C@H](C)[C@H](CN(C)Cc2ccc(Oc4ccccc4)cc2)O3)cc1	1.0
9	CC(=O)c1ccc(N2CCN(C(=O)c3ccccc3SCC(=O)NCc3ccco3)CC2)c(F)c1	2.4
10	CCCC#Cc1cnc2c(c1)C(=O)N([C@H](C)CO)C[C@H](C)[C@H](CN(C)C(=O)NCCC)O2	-2.9
11	O=C(C(=O)N1CCC(CNS(=O)(=O)c2ccc(F)c(F)c2)CC1)c1cc2ccccc2o1	3.4
12	C[C@H](CO)N1C[C@H](C)[C@@H](CN(C)Cc2ccc3c(c2)OCO3)Oc2c(NC(=O)c3ccncc3)cccc2C1=O	9.0
13	OCc1ccccc1OCc1ccccc1	-6.8
14	COc1ccccc1CNC(=O)C[C@H]1CC[C@H]2[C@H](COc3ccc(NC(=O)Nc4ccc(F)c(F)c4)cc3C(=O)N2C)O1	-1.3
15	Cc1ccc2nc(-c3cccc(Cl)c3)c(Cc3ccsc3)n2c1	0.0
16	O=C(COc1ccc(Br)cc1)NCCCN1CCCC1=O	-1.2
17	C(=C\c1ccccc1)/CN1CCN(C(c2cc3ccccc3o2)c2nnnn2-c2ccc3c(c2)OCCO3)CC1 (centres undefined)	2.5
18	C[C@H](CO)N1C[C@H](C)[C@@H](CN(C)S(=O)(=O)c2ccccc2)OCc2ccccc2-c2ccccc2C1=O	-1.8
19	CCCC(=O)Nc1ccc2c(c1)C(=O)N(C)C[C@@H](OC)[C@H](C)CN(C(C)=O)[C@H](C)CO2	-2.7
20	Cc1ccc(S(=O)(=O)N2C[C@@H](O)COC[C@@H]3O[C@H](CC(=O)NCc4ccc5c(c4)OCO5)CC[C@H]32)cc1	3.0
21	C[C@H]1CN([C@@H](C)CO)C(=O)CCCn2cc(nn2)CO[C@@H]1CN(C)C(=O)CCCN(C)C	-1.2
22	CCCC(=O)N1CC2(C1)CN(C(=O)C1CCCCC1)[C@@H](CO)c1[nH]c3cc(OC)ccc3c12	1.4
23	COc1cccc(S(=O)(=O)N(C)C[C@@H]2Oc3ncc(-c4cccc(C(=O)N(C)C)c4)cc3C(=O)N([C@@H](C)CO)C[C@H]2C)c1	0.1
24	O=C(Nc1ccccc1F)N1CC(=O)N2[C@H](CO)[C@H](c3ccc(C#CC4CC4)cc3)[C@@H]2C1	1.5
25	Cc1ccc(S(=O)(=O)N(C)C[C@H]2Oc3ccc(NC(=O)Cn4cnnn4)cc3CC(=O)N([C@H](C)CO)C[C@@H]2C)cc1	-1.4
26	O=C(C1CCCC1)N1CC(=O)N2[C@H](CO)[C@H](c3ccc(-c4ccccc4F)cc3)[C@@H]2C1	-3.1
27	CCOC(=O)C1CCCN(C(=O)COc2ccc(C(C)(C)C)cc2)CC1 (centres undefined)	1.5
28	O=C(O)CCCCCCC(=O)NOCc1ccccc1	-4.5
29	CO[C@H]1CN(C)C(=O)c2cc(NC(=O)c3ccccc3F)ccc2OC[C@H](C)N(CC2CCOCC2)C[C@H]1C	-2.0
30	O=C1Nc2ccccc2-n2nnnc2C1N1CCN(C(=O)c2ccco2)CC1 (centres undefined)	-0.8

Reprinted from the entries so far, 6 compounds:
#	Structure	MLL AF4-AF9 inh
25	Cc1ccc(S(=O)(=O)N(C)C[C@H]2Oc3ccc(NC(=O)Cn4cnnn4)cc3CC(=O)N([C@H](C)CO)C[C@@H]2C)cc1	-1.4
26	O=C(C1CCCC1)N1CC(=O)N2[C@H](CO)[C@H](c3ccc(-c4ccccc4F)cc3)[C@@H]2C1	-3.1
27	CCOC(=O)C1CCCN(C(=O)COc2ccc(C(C)(C)C)cc2)CC1 (centres undefined)	1.5
28	O=C(O)CCCCCCC(=O)NOCc1ccccc1	-4.5
29	CO[C@H]1CN(C)C(=O)c2cc(NC(=O)c3ccccc3F)ccc2OC[C@H](C)N(CC2CCOCC2)C[C@H]1C	-2.0
30	O=C1Nc2ccccc2-n2nnnc2C1N1CCN(C(=O)c2ccco2)CC1 (centres undefined)	-0.8

Other results:
#	Structure	MLL AF4-AF9 inh
31	COc1ccc(S(=O)(=O)N(C)C[C@@H]2OCCCC[C@H](C)Oc3ccc(NS(=O)(=O)c4c(C)noc4C)cc3C(=O)N([C@H](C)CO)C[C@@H]2C)cc1	0.0
32	O=C(C[C@H]1CC[C@H](NC(=O)Nc2cc(F)ccc2F)[C@H](CO)O1)NCCCN1CCOCC1	-2.0
33	COc1ccccc1-c1ccc2c(c1)O[C@@H](CN(C)C(=O)c1ccccc1)[C@@H](C)CN([C@H](C)CO)S2(=O)=O	2.7
34	COC(=O)C[C@@H]1C=C[C@@H](NC(=O)c2cccnc2)[C@@H](CO)O1	2.6
35	C[C@@H]1CN([C@@H](C)CO)C(=O)c2cccc(NS(=O)(=O)c3cn(C)cn3)c2O[C@@H]1CN(C)Cc1ccc(-c2ccccc2)cc1	11.5
36	C[C@H](CO)N1C[C@H](C)[C@H](CN(C)C(=O)c2ccccc2F)Oc2ncc(C#Cc3ccccc3)cc2C1=O	1.7
37	O=C(Nc1cccc2ccccc12)c1csc(COCCO)n1	-2.0
38	COCC#Cc1ccc2c(c1)O[C@@H](CN(C)CC1CCOCC1)[C@@H](C)CN([C@@H](C)CO)S2(=O)=O	-8.2
39	CC(C)NC(=O)Nc1ccc2c(c1)C(=O)N([C@H](C)CO)C[C@@H](C)[C@H](CN(C)S(=O)(=O)c1cn(C)cn1)O2	-2.1
40	COC(=O)C[C@H]1CC[C@H]2[C@@H](COc3ccc(NC(=O)c4cccc(OC)c4)cc3C(=O)N2C)O1	1.9
41	Cc1ccc(S(=O)(=O)Nc2ccc3c(c2)C(=O)N([C@@H](C)CO)C[C@@H](C)[C@@H](CN(C)C(=O)CCC(F)(F)F)OCCCC[C@H](C)O3)cc1	-1.2
42	CC(C)C#Cc1ccc2c(c1)O[C@@H](CN(C)C(=O)c1ccccn1)[C@@H](C)CN([C@@H](C)CO)S2(=O)=O	-0.5
43	CC(C)C(=O)Nc1ccc2c(c1)C(=O)N(C)[C@H]1CC[C@H](CC(=O)NC3CCCC3)O[C@H]1CO2	0.2
44	COc1ccc(NS(=O)(=O)c2cc(NC(=O)CCc3ccc(OC)c(OC)c3)ccc2N2CCOCC2)cc1	-1.6
45	Cc1ccc(S(=O)(=O)N(C)C[C@H]2OCCCC[C@@H](C)Oc3ccc(NS(=O)(=O)c4cn(C)cn4)cc3C(=O)N([C@@H](C)CO)C[C@@H]2C)cc1	3.1
46	COc1ccccc1CN(C)C[C@H]1OCc2ccccc2-c2c(n(C)c3ccccc23)C(=O)N([C@@H](C)CO)C[C@H]1C	9.4
47	CC(=O)N(C)C[C@@H]1[C@@H](c2ccc(-c3ccccc3F)cc2)[C@H](CO)N1C(C)=O	0.8
48	COc1ccc(CN(C)C[C@H]2Oc3c(NC(=O)c4cc(C)nn4C)cccc3C(=O)N([C@@H](C)CO)C[C@@H]2C)cc1	-1.0
49	CCCC#Cc1cnc2c(c1)C(=O)N([C@@H](C)CO)C[C@@H](C)[C@@H](CN(C)C(=O)NC1CCCC1)O2	-2.1
50	Cc1cccc(S(=O)(=O)N[C@@H]2CC[C@H](CCNC(=O)Nc3cc(F)ccc3F)O[C@H]2CO)c1	5.8
51	CCCOc1cccn2c(N(C=O)Cc3ccc(OC)cc3)c(CC)nc12	-6.6
52	CCNC(=O)C1(C)CCCN1C(=O)c1ccc(F)c(Cl)c1 (centres undefined)	-1.5
53	O=C(Nc1ccccc1)N[C@H]1CC[C@@H](CCNS(=O)(=O)c2ccccc2F)O[C@H]1CO	-1.5
54	C[C@@H]1CN([C@@H](C)CO)C(=O)Cc2cc(NC(=O)Cc3cn(C)c4ccccc34)ccc2O[C@H]1CN(C)Cc1ccc(-c2ccccc2)cc1	1.8
55	COc1ccccc1-c1cnc2c(c1)C(=O)N([C@H](C)CO)C[C@H](C)[C@@H](CN(C)Cc1ccc(C(=O)O)cc1)O2	-12.8
56	COC(=O)C[C@@H]1CC[C@H](NS(=O)(=O)c2ccccc2F)[C@H](CO)O1	-2.3
57	N#C[C@H]1[C@H](c2ccc(-c3cccc(F)c3)cc2)[C@@H](CO)N1c1nc(-c2ccccc2)cs1	-8.6
58	CC(=O)Nc1cc(-c2cccc(C(=O)NCCN(C)C)c2)cn2c(-c3cccc(C(F)(F)F)c3)cnc12	25.8*
59	COc1ccccc1S(=O)(=O)N[C@@H]1CC[C@@H](CCNC(=O)C2CCCCC2)O[C@H]1CO	-1.3
60	CCOC(=O)N(C)C[C@H]1OCc2ccccc2-c2ccccc2C(=O)N([C@@H](C)CO)C[C@H]1C	-4.3
61	COc1ccc(S(=O)(=O)N[C@H]2CC[C@@H](CC(=O)NCCc3ccncc3)O[C@@H]2CO)cc1	-1.2
62	COc1cccc(NC(=O)N(C)C[C@H]2Oc3ncc(/C=C/c4ccccc4)cc3C(=O)N([C@@H](C)CO)C[C@H]2C)c1	9.5
63	CC1(Oc2ccc(CC#N)cc2)CCN(Cc2ccccc2OC(F)F)C1 (centres undefined)	1.9
64	CCNC(=O)[C@H]1[C@H](CO)[C@H]2Cn3c(ccc(-c4ccc(F)cc4)c3=O)[C@H]2N1C(=O)Cc1cccnc1	0.6
65	CN(C)c1ccc2c(c1)[C@H]1C[C@H](CC(=O)O)O[C@H](CO)[C@H]1O2	-0.6
66	C[C@@H]1CN([C@H](C)CO)C(=O)c2cccc(NC(=O)C3CCCCC3)c2O[C@@H]1CN(C)C(=O)Nc1cccc2ccccc12	0.1
67	COC(=O)c1cc(Cl)ccc1NCC(N)c1ccccc1 (centres undefined)	-10.5
68	CN(C)CCCNC(=O)C[C@H]1CC[C@H](NS(=O)(=O)c2ccccc2)[C@H](CO)O1	-1.3
69	Cc1ccc(S(=O)(=O)Nc2ccc3c(c2)CC(=O)N([C@@H](C)CO)C[C@@H](C)[C@H](CN(C)C(=O)Nc2ccccc2)O3)cc1	-0.5
70	COc1ccc(NC(=O)Nc2ccc3c(c2)C(=O)N([C@@H](C)CO)C[C@H](C)[C@@H](CN(C)S(=O)(=O)c2ccc(F)cc2)OCCCC[C@H](C)O3)cc1	2.6
71	Cc1ccc(-c2nc3c(Br)cc(C)cn3c2Cc2cccc(Cl)c2)cc1	0.3
72	C[C@H](CO)N1C[C@H](C)[C@H](CN(C)Cc2ccc(Oc3ccccc3)cc2)Oc2ccc(NC(=O)C3CCCCC3)cc2CC1=O	0.9
73	CCCNC(=O)N[C@H]1C=C[C@@H](CC(=O)N2CCN(C)CC2)O[C@H]1CO	-1.5
74	COc1cccc(C#Cc2ccc([C@@H]3[C@@H](C#N)N(C(=O)C4CCCCC4)[C@H]3CO)cc2)c1	1.9
75	O=C(c1ccccc1F)N1CC[C@@H]2[C@H]1c1cc(-c3ccc(F)cc3)ccc1N[C@@H]2CO	-10.4
76	Nc1sc(Cc2ccccc2)cc1C(=O)c1c(-c2ccccc2)[nH]c2ccccc12	1.1
77	C[C@H](O)C#Cc1cnc2c(c1)C(=O)N([C@H](C)CO)C[C@@H](C)[C@H](CN(C)C(=O)CN1CCOCC1)O2	-1.8
78	CCC(=O)N1CCCCN2[C@H](CO)[C@H](c3ccc(C#CCOC)cc3)[C@H]2C1	-2.0
79	Cc1noc(C)c1NC(=O)Nc1ccc2c(c1)CC(=O)N([C@@H](C)CO)C[C@@H](C)[C@@H](CN(C)Cc1ccc(C(=O)Nc3ccccc3N)cc1)O2	2.3
80	COC(=O)C[C@@H]1CC[C@@H]2[C@H](COC[C@H](O)CN2S(=O)(=O)c2ccccc2C)O1	-0.9
81	O=C([C@@H]1[C@@H](CO)[C@@H]2Cn3c(cccc3=O)[C@H]1N2CCC(F)(F)F)N1CCCCC1	-0.4
82	C[C@@H]1CN([C@@H](C)CO)C(=O)c2cc(NS(=O)(=O)c3ccccc3)ccc2O[C@@H](C)CCCCO[C@H]1CN(C)C(=O)CCCN(C)C	0.1
83	O=C(O)C[C@@H]1C[C@@H]2c3cc(NS(=O)(=O)c4ccccc4)ccc3O[C@@H]2[C@@H](CO)O1	-1.7
84	O=C(CN1CCOCC1)N[C@H]1CC[C@@H](CCn2cc(C3CCCC3)nn2)O[C@H]1CO	-1.0
85	O=C(C[C@@H]1CC[C@H](NC(=O)C2CC2)[C@H](CO)O1)NCCCN1CCOCC1	-2.2
86	CCc1ncn(CCc2ccccc2OC)c1C(C)C	3.5
87	CC(=O)Oc1ccc(CN2C(=O)C(CCc3ccccc3)ON=C2c2cnccn2)cc1 (centres undefined)	3.0
88	COc1ccc(NC(=O)N2CC(=O)N3[C@H](C2)[C@H](c2ccc(Br)cc2)[C@@H]3CO)cc1	-3.1
89	C[C@H]1CN([C@@H](C)CO)S(=O)(=O)c2ccc(C#CC3(O)CCCC3)cc2O[C@@H]1CN(C)CC1CC1	1.8
90	Cc1cc(C)cc(Cn2c3ccc(NC(=O)NCCc4cccs4)cc3c(=O)n2C)c1	0.8

An excerpt, so the mix of outcomes need not match the whole.
